Hsc70 – Hsc70 inhibitors, probe displacement, primary screen, biochemical, fluorescence polarization (AID 568). Hsc70 fluorescence polarization, probe displacement; higher % means a stronger effect; strong numbers were not always called active. displacement, % at 20 µM, or IC50 in µM where a hit was titrated. 83,000 tested, under 10 active;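 active = displacement above 50% without optical interference and an IC50 on retest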;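 also: ATPase domain with a fluorescein-tagged ATP probe; 0% = vehicle and 100% = excess ADP; read after one hour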
WNV NS2B-NS3 inh – blocks West Nile virus NS2B-NS3 protease activity | hit rate 0.18% among 65,000 | P06935 | z-score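 (tested at a level between 10 and 100 µM)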 | WNV NS2B-NS3 protease, fluorogenic substrate Ex360/Em465; active compounds read low;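 active = z-score at -3 or under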;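 also: score is relative to mean and spread of the compound wells of a plate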
Target sequence (P06935 1371-1501 limits assumed): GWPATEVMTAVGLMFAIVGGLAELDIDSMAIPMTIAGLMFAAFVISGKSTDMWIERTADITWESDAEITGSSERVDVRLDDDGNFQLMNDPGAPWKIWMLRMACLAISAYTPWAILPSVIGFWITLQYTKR
Target sequence (P06935 1502-1679 limits assumed): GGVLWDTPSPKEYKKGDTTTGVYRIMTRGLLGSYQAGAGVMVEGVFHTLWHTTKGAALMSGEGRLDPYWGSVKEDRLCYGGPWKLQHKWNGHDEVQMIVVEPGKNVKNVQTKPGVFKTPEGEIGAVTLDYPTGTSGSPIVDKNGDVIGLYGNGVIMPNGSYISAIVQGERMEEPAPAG
MT1-MMP reporter – inhibitors of MT1-MMP promoter transcription, cell-based, luciferase reporter, luminescence (AID 618); MT1-MMP promoter luciferase reporter cells, luminescence; calls from a first round at 10 µM; hits with a dose series show EC50 in µM; hit rate 0.62% among 87,000;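 active = over half of the reporter light lost at 10 µM or EC50 under 50 µM; inactive = the rest and hits that failed the dose series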;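 also: actives suppress MT1-MMP promoter-driven transcription so potencies describe inhibitors; HT1080 fibrosarcoma cells; overnight exposure; toxic or luciferase-blocking compounds were not removed from the actives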
Starred values were filed as active, the others as inactive.

`O=C(C1CCCN(Cc2ccncc2)C1)N1CCc2ccccc2C1` (stereo not given) gave Hsc70 4.6%, WNV NS2B-NS3 inh 0.44 and MT1-MMP reporter inactive.
`O=C(O)CCCCCNC(=O)c1ccncc1` gave Hsc70 -1.3%, WNV NS2B-NS3 inh 0.96 and MT1-MMP reporter inactive.
`COc1ccc(-c2cc3n(n2)CCc2nc4ccccc4n2-3)cc1` gave Hsc70 -3.5%, WNV NS2B-NS3 inh -0.68 and MT1-MMP reporter inactive.
Screening CC(=O)N(Cc1ccc(F)cc1)C1=C(NCc2ccccc2)C(=O)c2ccccc2C1=O returned Hsc70 2.2% and MT1-MMP reporter active.
O=C(CN1CCCC1)Nc1ccc(Oc2ccc(NC(=O)CN3CCCC3)cc2)cc1 was read as Hsc70 2.2%, WNV NS2B-NS3 inh 1.8 and MT1-MMP reporter inactive.
For CCN(CC)CCNC(=O)c1c(O)c2cc(OC)c(OC)cc2[nH]c1=O the results were Hsc70 4.4%, WNV NS2B-NS3 inh 1.4 and MT1-MMP reporter inactive.
Screening CCOc1ccc(-n2nc(C(=O)NCCOC)c3ccccc3c2=O)cc1 returned Hsc70 5.8%, WNV NS2B-NS3 inh 1.4 and MT1-MMP reporter inactive.
`CCOC(=O)C(CC)(CC)/C(C)=N/NC(=O)CC#N` gave Hsc70 -2.2% and MT1-MMP reporter inactive.
Screening CCOC(=O)N1CCN(Cc2nc3c(c(=O)n(C)c(=O)n3C)n2Cc2cccc(C)c2)CC1 returned Hsc70 1.2%, WNV NS2B-NS3 inh -0.93 and MT1-MMP reporter inactive.
CCCCN(C(=O)CNC(=O)c1ccco1)C(C(=O)NC1CCCCC1)c1ccc(OC)cc1OC (stereo not given) was read as Hsc70 2.5%, WNV NS2B-NS3 inh -0.84 and MT1-MMP reporter inactive.
For CN(C1CCCCC1)S(=O)(=O)c1ccc(-n2cnnn2)cc1 the results were Hsc70 5.9%, WNV NS2B-NS3 inh 1.2 and MT1-MMP reporter inactive.
C=CCOc1nc(N(C)C)nc(N(C)C)n1 was read as Hsc70 0.1%, WNV NS2B-NS3 inh -0.42 and MT1-MMP reporter inactive.
`Cc1ccc2c(c1)c(CC(=O)Nc1ccc(C)c(F)c1)c(C(=O)O)n2C` gave Hsc70 -1.4% and MT1-MMP reporter inactive.
`COc1cccc(C(=O)Cn2c(Br)nc3c2c(=O)n(C)c(=O)n3C)c1` gave Hsc70 2.1%, WNV NS2B-NS3 inh 0.46 and MT1-MMP reporter inactive.
`Cc1cc(C)nc(NC(=O)c2cnc3sccn3c2=O)n1` gave Hsc70 -0.4%, WNV NS2B-NS3 inh 0.43 and MT1-MMP reporter inactive.
CCOC(=O)CN1C(=O)C(O)(CC(=O)c2ccc3c(c2)CCCC3)c2ccccc21 (stereo not given) was read as Hsc70 5.1% and MT1-MMP reporter inactive.
`Cc1ccc(OC2=NS(=O)(=O)c3ccccc32)cc1` gave Hsc70 0.3% and MT1-MMP reporter inactive.
`CCOC(=O)CSc1ccc2nnc(-c3ccncc3)n2n1` gave Hsc70 -2.7%, WNV NS2B-NS3 inh 1.4 and MT1-MMP reporter inactive.
`FC(F)(F)c1nnc2ccc(N3CCCC3)nn12` gave Hsc70 0.7% and MT1-MMP reporter inactive.
Cc1cc(Cl)ccc1N=Cc1c(O)n(C)c(=O)n(C)c1=O was read as Hsc70 4.5%, WNV NS2B-NS3 inh -0.97 and MT1-MMP reporter inactive.
For Cc1ccc(O)c(C2=NOC(O)(C(F)(F)F)C2)c1 (stereo not given) the results were Hsc70 -4.2% and MT1-MMP reporter inactive.
`COc1cc(CO)cc(Br)c1OCc1cccnc1` gave Hsc70 -4.4%, WNV NS2B-NS3 inh 0.15 and MT1-MMP reporter inactive.
`CCC(C)N(CCNC(=O)CC1Oc2ccccc2NC1=O)C1CCCCC1` (stereo not given) gave Hsc70 -1.0%, WNV NS2B-NS3 inh 1.2 and MT1-MMP reporter inactive.
Screening Cc1ccc(F)cc1NC(=O)c1cccc2nccnc12 returned Hsc70 1.7%, WNV NS2B-NS3 inh -0.34 and MT1-MMP reporter inactive.
For O=S1(=O)CCC(N2CCOCC2)C1 (stereo not given) the results were Hsc70 -2.2% and MT1-MMP reporter inactive.
`COC(=O)c1ccc(CSc2nc(-c3ccccc3)cs2)o1` gave Hsc70 -0.7%, WNV NS2B-NS3 inh -0.16 and MT1-MMP reporter inactive.
Screening COc1ccc(OC)c(S(=O)(=O)N(C)CC(=O)N2CCN(c3ccc(F)cc3)CC2)c1 returned Hsc70 0.7%, WNV NS2B-NS3 inh -0.32 and MT1-MMP reporter inactive.
O=c1c2ccccc2nnn1CSc1nnc2sc3ccccc3n12 was read as Hsc70 2.7%, WNV NS2B-NS3 inh 0.73 and MT1-MMP reporter 8µM*.
`CCn1c(=O)c(C(=O)NCc2ccc(OC)c(OC)c2)c(O)c2ccccc21` gave Hsc70 -3.5%, WNV NS2B-NS3 inh -0.19 and MT1-MMP reporter inactive.
Screening CCC(c1ccccc1)c1nc(-c2ccccn2)no1 (stereo not given) returned Hsc70 -3.8%, WNV NS2B-NS3 inh -0.09 and MT1-MMP reporter inactive.
`Cc1nnc(SCc2ccc(F)cc2)s1` gave Hsc70 -1.3%, WNV NS2B-NS3 inh -0.21 and MT1-MMP reporter inactive.
For Cc1ccccc1CS(=O)(=O)Cc1ccc(C(=O)NCc2ccccn2)o1 the results were Hsc70 31%, WNV NS2B-NS3 inh 1 and MT1-MMP reporter inactive.
`CCn1c(SCC(=O)N2CCCc3ccccc32)nnc1-c1ccco1` gave Hsc70 -5.7%, WNV NS2B-NS3 inh 1.2 and MT1-MMP reporter inactive.
Screening CCN(C(=O)CSc1nc2nc(C)cc(C)n2n1)c1cccc(C)c1 returned Hsc70 -2.3%, WNV NS2B-NS3 inh -0.92 and MT1-MMP reporter inactive.
O=S(=O)(NCCCCCNS(=O)(=O)c1ccccc1)c1ccccc1 was read as Hsc70 1.2%, WNV NS2B-NS3 inh -0.92 and MT1-MMP reporter inactive.
Screening O=C(NCC(F)(F)F)Nc1nnc(C(F)(F)F)s1 returned Hsc70 -5.1%, WNV NS2B-NS3 inh -0.45 and MT1-MMP reporter inactive.
Cc1ccc(S(=O)(=O)N(CCC(=O)O)Cc2ccc(Cl)cc2)cc1 was read as Hsc70 -3.3% and MT1-MMP reporter inactive.
For O=C(c1ccc(Cl)cc1Cl)C1(n2cncn2)Oc2ccccc2C1O (stereo not given) the results were Hsc70 -7.4%, WNV NS2B-NS3 inh -0.42 and MT1-MMP reporter inactive.
O=C(/C=C\c1ccccc1)Nc1nccs1 was read as Hsc70 4.9% and MT1-MMP reporter inactive.
Screening Cc1ccc(-c2cc(C(=O)Nc3cc(C)ccc3C)[nH]n2)c(O)c1 returned Hsc70 2.1%, WNV NS2B-NS3 inh -1.1 and MT1-MMP reporter inactive.

Entries from the list above that contain bromine (two):
`COc1cccc(C(=O)Cn2c(Br)nc3c2c(=O)n(C)c(=O)n3C)c1` gave Hsc70 2.1%, WNV NS2B-NS3 inh 0.46 and MT1-MMP reporter inactive.
`COc1cc(CO)cc(Br)c1OCc1cccnc1` gave Hsc70 -4.4%, WNV NS2B-NS3 inh 0.15 and MT1-MMP reporter inactive.

Five records picked at random from those above, as already listed:
`Cc1ccc(OC2=NS(=O)(=O)c3ccccc32)cc1` gave Hsc70 0.3% and MT1-MMP reporter inactive.
For CN(C1CCCCC1)S(=O)(=O)c1ccc(-n2cnnn2)cc1 the results were Hsc70 5.9%, WNV NS2B-NS3 inh 1.2 and MT1-MMP reporter inactive.
Screening CCC(c1ccccc1)c1nc(-c2ccccn2)no1 (stereo not given) returned Hsc70 -3.8%, WNV NS2B-NS3 inh -0.09 and MT1-MMP reporter inactive.
CCOC(=O)CN1C(=O)C(O)(CC(=O)c2ccc3c(c2)CCCC3)c2ccccc21 (stereo not given) was read as Hsc70 5.1% and MT1-MMP reporter inactive.
Screening Cc1ccc(F)cc1NC(=O)c1cccc2nccnc12 returned Hsc70 1.7%, WNV NS2B-NS3 inh -0.34 and MT1-MMP reporter inactive.

(next part)
Screening CCCCNC(=O)c1sc(=S)n2c1[nH]c(=O)c1ccccc12 returned Hsc70 1.7%, WNV NS2B-NS3 inh 1.6 and MT1-MMP reporter inactive.
CCc1cccc(C)c1NC(=O)c1cc(C)oc1C was read as Hsc70 2.1%, WNV NS2B-NS3 inh -0.35 and MT1-MMP reporter inactive.
Cc1cc(NC(=O)c2cc3ccccc3o2)cc(C)c1OCC(=O)N1CCOCC1 was read as Hsc70 5.2%, WNV NS2B-NS3 inh 1.4 and MT1-MMP reporter inactive.
Screening COc1cccc(C(=O)NC2=NCCS2)c1OC returned Hsc70 6.0%, WNV NS2B-NS3 inh 0.94 and MT1-MMP reporter inactive.
Screening CC(C)CCn1c(Oc2ccc(Cl)cc2)nc2c1c(=O)n(C)c(=O)n2C returned Hsc70 -8.9% and MT1-MMP reporter inactive.
Screening O=c1[nH]c(CN2CCN(Cc3ccc4c(c3)OCO4)CC2)nc2ccccc12 returned Hsc70 2.6%, WNV NS2B-NS3 inh -0.02 and MT1-MMP reporter inactive.
`CCn1nnnc1SCC(=O)NC1CCCC1` gave Hsc70 0.8% and MT1-MMP reporter inactive.
For Cc1ccc(OCC(=O)Nn2cnc3ccccc32)cc1 the results were Hsc70 1.7% and MT1-MMP reporter inactive.
For NNC(=O)c1cnn(Cc2ccccc2)c1N the results were Hsc70 -2.3% and MT1-MMP reporter inactive.
Screening O=C(CN1CC(c2ccccc2)CC1=O)Nc1ccc2c(c1)OCO2 (stereo not given) returned Hsc70 5.0%, WNV NS2B-NS3 inh -2.6 and MT1-MMP reporter inactive.
O=C(Nc1ccccc1N1CCOCC1)c1cccs1 was read as Hsc70 -3.4% and MT1-MMP reporter inactive.
For Cc1ccc(S(=O)(=O)C2(C(=O)N3CCCCCC3)CC2)cc1 the results were Hsc70 -0.5%, WNV NS2B-NS3 inh -0.09 and MT1-MMP reporter inactive.
For NS(=O)(=O)c1ccc(CCNC(=O)c2cccnc2)cc1 the results were Hsc70 -2.2%, WNV NS2B-NS3 inh -1 and MT1-MMP reporter inactive.
COC(=O)c1ccc(Cl)c(NC(=O)CSc2ncn[nH]2)c1 was read as Hsc70 -1.0%, WNV NS2B-NS3 inh 0.6 and MT1-MMP reporter inactive.
For CCOc1ccc(-c2nnn(CC#N)n2)cc1OC the results were Hsc70 2.4% and MT1-MMP reporter inactive.
O=S(=O)(Cc1ccccc1)NCc1ccccn1 was read as Hsc70 5.9%, WNV NS2B-NS3 inh -0.59 and MT1-MMP reporter inactive.
For O=C(Nc1ccc2c(c1)OCCO2)C1CCN(c2nnnn2-c2ccccc2)CC1 the results were Hsc70 -3.9%, WNV NS2B-NS3 inh 0.92 and MT1-MMP reporter inactive.
For O=C(Cn1cc(C(=S)N2CCOCC2)c2ccccc21)N1CCOCC1 the results were Hsc70 5.1%, WNV NS2B-NS3 inh 0.14 and MT1-MMP reporter inactive.
Screening COc1ccc(NC(C)=O)cc1NC(=O)CCn1c(=O)sc2ccccc21 returned Hsc70 -2.2%, WNV NS2B-NS3 inh 0.43 and MT1-MMP reporter inactive.
Screening Cn1c(=O)c2c(nc(N3CCOCC3)n2CCCNC2=NCCC2)n(C)c1=O returned Hsc70 -4.4%, WNV NS2B-NS3 inh -0.88 and MT1-MMP reporter inactive.
For CN1CCN(C(=O)CSc2nc(-c3ccncc3)ccc2C#N)CC1 the results were Hsc70 0.1%, WNV NS2B-NS3 inh -0.25 and MT1-MMP reporter inactive.
`Cc1ccc2nc(NC(=O)C3CCN(S(=O)(=O)c4cccc5nsnc45)CC3)sc2c1` gave Hsc70 -3.1%, WNV NS2B-NS3 inh 0.2 and MT1-MMP reporter inactive.
`COCCn1c(C(C)C)nc2oc3ccccc3c(=O)c2c1=O` gave Hsc70 -0.1%, WNV NS2B-NS3 inh -0.54 and MT1-MMP reporter inactive.
Screening N#Cc1nc(Cc2ccccc2)oc1NCCc1ccccc1 returned Hsc70 5.1%, WNV NS2B-NS3 inh 1.1 and MT1-MMP reporter inactive.
`CN(c1ccccc1)S(=O)(=O)c1ccc(C(=O)Nc2nnc(-c3ccc(F)cc3)o2)cc1` gave Hsc70 -0.1%, WNV NS2B-NS3 inh 0.2 and MT1-MMP reporter inactive.
O=C(Cc1c(O)c2ccccc2[nH]c1=O)NC1CCCCCC1 was read as Hsc70 -3.3%, WNV NS2B-NS3 inh -0.82 and MT1-MMP reporter inactive.
For CC1CCCCN1C(=O)c1cc(-c2ccc(Cl)c(Cl)c2)on1 (stereo not given) the results were Hsc70 1.2%, WNV NS2B-NS3 inh 1.5 and MT1-MMP reporter inactive.
CCOc1nonc1C(=N)/C(C(C)=O)=C(\C)O was read as Hsc70 4.8%, WNV NS2B-NS3 inh -0.73 and MT1-MMP reporter inactive.
Screening CCSc1nnc(NC(=O)CSc2nc3c(c(=O)n2-c2ccccc2)SCC3)s1 returned Hsc70 -8.7% and MT1-MMP reporter inactive.
CCCCc1ccc(C2C(C#N)=C(N)SC(N)=C2C#N)s1 was read as Hsc70 -23%, WNV NS2B-NS3 inh -1.5 and MT1-MMP reporter inactive.
For Cc1ccc(N2CCN(C(=O)CNS(=O)(=O)c3ccc(Br)s3)CC2C)cc1 (stereo not given) the results were Hsc70 -0.8%, WNV NS2B-NS3 inh 0.92 and MT1-MMP reporter inactive.

Compound activity from PubChem.

Not a hit list, and some 0.8% of all compounds hit somewhere here.
